RecA intein inh = Mtb RecA intein splicing inhibitors, primary screen, biochemical, fluorescence, HTS; Protein RecA (Mycobacterium tuberculosis (strain ATCC 25618 / H37Rv)), P9WHJ3; cell-free RecA intein splicing; inhibition, %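 (about 9 µM by stock and volumes)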; hit rate 0.75% among 290,000; AID 2221, 2009; in the data active means inhibition above about 30%; inconclusive means no clear call, values can overlap the other calls;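 further: 0% = vehicle wells and 100% = reference inhibitor control wells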
Target sequence (P9WHJ3 whole entry, looked up): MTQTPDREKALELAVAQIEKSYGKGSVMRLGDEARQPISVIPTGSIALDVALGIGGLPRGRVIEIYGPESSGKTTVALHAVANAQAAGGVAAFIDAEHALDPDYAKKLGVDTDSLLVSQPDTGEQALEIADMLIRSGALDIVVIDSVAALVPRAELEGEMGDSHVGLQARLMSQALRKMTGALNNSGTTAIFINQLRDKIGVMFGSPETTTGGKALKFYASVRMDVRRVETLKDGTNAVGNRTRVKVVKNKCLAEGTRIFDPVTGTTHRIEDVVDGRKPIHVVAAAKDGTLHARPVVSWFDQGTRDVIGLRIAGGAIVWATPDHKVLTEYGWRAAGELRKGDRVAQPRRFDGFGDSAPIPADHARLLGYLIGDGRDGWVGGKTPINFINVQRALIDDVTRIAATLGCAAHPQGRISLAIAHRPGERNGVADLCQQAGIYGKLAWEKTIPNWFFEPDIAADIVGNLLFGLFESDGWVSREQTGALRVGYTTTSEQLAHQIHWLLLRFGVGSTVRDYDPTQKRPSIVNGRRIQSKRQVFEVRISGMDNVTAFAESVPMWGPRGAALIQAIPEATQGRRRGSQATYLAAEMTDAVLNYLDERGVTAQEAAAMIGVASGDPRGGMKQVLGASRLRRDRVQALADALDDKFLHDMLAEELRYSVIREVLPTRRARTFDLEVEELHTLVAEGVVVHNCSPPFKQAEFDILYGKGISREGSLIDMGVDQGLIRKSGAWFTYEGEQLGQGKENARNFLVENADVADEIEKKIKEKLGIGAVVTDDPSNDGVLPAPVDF
Arbovirus anti = antivirals against arbovirus infection, primary screen, cell-based, full library, 10K replicate subset; arbovirus infection cell-based antiviral screen; AID 1251, 2008; inhibition, % at 10 µM; hit rate 0.37% among 200,000;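 active means inhibition from about 30%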;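 further: bluetongue infection of BSR cells; cell survival read as ATP light after 72 h; 0% = infected wells without compound and 100% = uninfected wells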
Mtb H37Rv = M. tuberculosis H37Rv growth inhibitors, H37Rv strain (AID 1626). one-dose inhibition, % at 10 µM; IC50 in µM for titrated hits. M. tuberculosis H37Rv growth inhibition; higher % means a stronger effect. hit rate 0.95% among 220,000;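 active means confirmed in a dose series; inconclusive means inhibition above 80% but not taken into the dose series; inactive means below 80% or under 30% at every dose of the series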;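 further: bacteria incubated seven days before Alamar blue readout; 0% = bacteria only wells and 100% = bacteria with antibiotic wells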
YopH inh = YopH tyrosine phosphatase inhibitors, primary screen, biochemical, fluorescence Ex485/Em525; AID 898, 2007; hit rate 0.16% among 140,000; inhibition, %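 (about 10 µM by stock and volumes)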; YopH tyrosine phosphatase [Yersinia enterocolitica];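 active means inhibition of 50% or more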;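 further: controls were vehicle for no effect and minimum signal wells for full effect; inactives centre near -20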
Mtb bLac sens = beta-lactam sensitization of Mtb H37Rv, H37Rv | M. tuberculosis H37Rv growth with meropenem, percent inhibition; hits of this screen are not shown here | inhibition, % at 25 µM | hit rate 0.27% among 330,000 | AID 434955, 2010;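 active means about 74% or more and at least 40 points above the plate without the antibiotic, then above 30% in a dose series; inconclusive means first-round hits that could not be retested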;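 further: growth measured after seven days incubation then overnight dye step; 0% = bacteria only wells and 100% = bacteria with antibiotic; twin plates without the antibiotic show which effects depend on it; some results filed as inactive read as strong as hits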
* = called active by the depositor; ? = inconclusive; / = not tested or not shown. Some of the compounds tested; the hit share may differ from the screen's.

SMILES	RecA intein inh	Arbovirus anti	Mtb H37Rv	YopH inh	Mtb bLac sens
COC(=O)c1ccccc1N1C(=O)[C@@H]2C(c3ccc(Br)cc3)=NO[C@@H]2C1=O	-1.7	5	-14%	-22	3
COc1ccc(CCN(C(=O)c2snc(C(N)=O)c2N)C(C)C(=O)NC2CCCCC2)cc1OC (stereo not given)	-2.9	/	/	/	-3
Cc1ccc(CN2CC(C(=O)NCCCSc3ccccc3)CC2=O)cc1 (stereo not given)	1.9	/	/	/	-1
CCCCCc1nnc(NS(C)(=O)=O)s1	-2.8	5	-5%	-13	-5
Cc1cc(C2(c3cc(C)c(NC(=O)CN4CCOCC4)c(C)c3)CCCCC2)cc(C)c1NC(=O)CN1CCOCC1	-1.6	9	-11%	-5	-7
COc1cccc(/C=C(/C#N)c2ccc(Cl)cc2)c1OCc1cccc(C(=O)O)c1	0.7	9	3%	/	2
Cc1ccc(OCC(=O)Oc2c(C)cccc2C)cc1C	2.3	/	/	/	92
Cc1c(C(=O)Nc2nc3ccccc3[nH]2)cccc1[N+](=O)[O-]	-3.2	-5	53%	-20	85
COc1ccc(NC(=O)COC(=O)C2CC(=O)N(c3ccc(OC(C)C)cc3)C2)cc1 (stereo not given)	-0.5	/	/	/	3
Cc1ccc(COc2ccc(Br)cc2/C=N/O)cc1	29	-36	6%	-18	82
COc1ccc(C(=O)/C=C/C(=O)N(Cc2ccc(F)cc2)C(C(=O)NC2CCCCC2)c2ccncc2)c(O)c1 (stereo not given)	2.3	-19	11%	-2	-1
Cc1ccc(C(=O)NNC(=O)c2ccc(-n3cncn3)c([N+](=O)[O-])c2)cc1	-4.3	/	/	/	-12
CCOC(=O)C1(CCOC)CCN(Cc2cccc(OCc3ccccc3)c2)CC1	1.0	/	/	/	0
COc1ccc(CCCNC(=O)C2CCC(=O)N(Cc3ccccc3F)C2)cc1 (stereo not given)	-0.7	/	/	/	-3
Cc1ccc(N2CCN(CCc3nc4cc(NS(C)(=O)=O)ccc4n3C)CC2)cc1	-4.1	11	-4%	-37	2
COc1ccc(-c2cc(CNS(=O)(=O)c3ccc(F)cc3)on2)cc1	2.3	-4	7%	/	-6
Cn1c(=O)c2c(nc(N3CCCCC3)n2CCCNC2=NCCCC2)n(C)c1=O	1.6	7	/	-38	15
O=C1CC(c2ccccc2Cl)Cc2c1cnn2-c1nc2ccccc2s1 (stereo not given)	-2.0	-33	-2%	11	-1
CC(C)(C)NC(=O)C(c1ccccc1)N(Cc1cccs1)C(=O)c1csnn1 (stereo not given)	2.7	-8	2%	-8	-4
CN(C)C(CNC(=S)Nc1ccccc1)c1cccnc1 (stereo not given)	-0.2	8	-3%	-25	6
Cc1ccc(CSc2nc3ccccc3c(=O)n2Cc2ccco2)cc1	12	13	12%	-6	3
c1ccc(CNc2c3c(nc4ncnn24)CCC3)cc1	-0.9	/	/	/	-7
C=CCSc1nc(=O)n2ccc(C)cc2n1	-4.3	0	-2%	/	-2
CC(C)CNC(=O)CO/N=C/c1ccccc1Cl	-0.8	3	6%	/	10
Cc1ccc(OCCOc2ccc(Br)cc2)c([N+](=O)[O-])n1	-0.1	-5	2%	-34	7
Cc1ccc(CN(c2ccc(C(=O)NCc3cccnc3)cc2)S(C)(=O)=O)cc1	1.3	-5	2%	-3	2
Cc1cc(Nc2nc3ccccc3nc2Cl)n(-c2ccccc2C)n1	2.3	20	2%	-24	2
COc1cc(CCCN2C(=O)C(=O)NC[C@@H]2CCCCN)cc(OC)c1OC	0.8	/	-6%	/	-5
COc1cccc(C2=NOC(C(=O)N3CCC4(CC3)OCCO4)C2)c1 (stereo not given)	/	3	-10%	-27	0
COc1cc(C(=O)N2CCN(S(=O)(=O)c3cccc(F)c3)CC2)ccc1OCC(=O)N1CCOCC1	-1.6	/	/	/	-13
CCCCC1(C(=O)OCC)CC(CN2CCOCC2)OC1=O (stereo not given)	4.2	4	-18%	/	-8
COc1ccc(C(=O)CSc2nc3ccc([N+](=O)[O-])cc3[nH]2)cc1	1.3	-3	5%	-8	-4
COc1cccc(NC(=O)N2CCN(c3nnnn3-c3ccccc3)CC2)c1	1.8	-8	-1%	/	1
COC(=O)c1cc(NC(=O)CC2NCCNC2=O)cc(C(=O)OC)c1 (stereo not given)	1.5	11	-11%	9	-5
CCN(C(=O)c1ccc(Cl)cc1[N+](=O)[O-])c1ccccc1C	-3.2	14	10%	/	-13
CCCN1CCN(C(=O)c2ccc(CS(=O)c3ccc(Cl)cc3)o2)CC1 (stereo not given)	-4.3	/	/	/	-2
COc1ccc(/C=C2\C(=N\O)C3CCN2CC3)cc1	3.6	-15	-6%	-19	-6
COC(=O)CSc1nc(SCc2ccccc2Cl)nc2c1CCCC2	8.5	2	-18%	-17	-12
O=C(NCCNC(=O)c1cc(Cl)ccc1Cl)c1ccccn1	2.5	/	/	/	-4
O=C(CNC(=O)N1CC(=O)Nc2ccccc21)NCCc1cccc(F)c1	0.6	/	/	/	-2
NC(=O)C1CCN(C(c2ccccc2Cl)c2nnnn2CC2CCCO2)CC1 (stereo not given)	-1.3	5	-2%	-37	-7
O=C1CN(C(=O)c2ccccc2C(=O)O)c2ccccc2N1	-2.5	/	/	/	-8
Cc1nn(Cc2ccccc2)c(C)c1C(=O)OCC(=O)Nc1ccccc1SCC#N	2.1	5	-1%	-4	-2
CCc1cc(=O)oc2c(C)c(OCC(=O)N3CCC[C@@H]3C(=O)O)ccc12	3.8	/	/	/	-6
COc1ccc(CSc2nc(C)cc(=O)[nH]2)cc1Br	0.1	7	-3%	-25	-5
COc1ccc(OC(C)C(=O)N2CCCc3ccccc32)cc1 (stereo not given)	0.6	3	5%	/	-2
CCn1cc(C(=O)NCc2ccccc2Cl)cn1	2.7	-3	-4%	-11	3
O=C(c1cc(F)ccc1F)C1CCCN(C(=O)c2cccs2)C1 (stereo not given)	-0.8	7	4%	/	-4
CC(OC(=O)COc1ccccc1[N+](=O)[O-])C(=O)Nc1ccc(N2CCOCC2)cc1 (stereo not given)	1.8	3	-2%	/	1
CC(OC(=O)c1ccc(Cl)c(S(=O)(=O)Nc2ccc(F)cc2)c1)C(=O)NC(N)=O (stereo not given)	-0.8	/	-2%	/	-7

Remaining list, next part.
SMILES	RecA intein inh	Arbovirus anti	Mtb H37Rv	YopH inh	Mtb bLac sens
c1n[nH]c(NC2=NCCC2)n1	/	-1	-5%	-40	-1
C=CCSc1nc2sc(C)c(C)c2c(=O)n1CC=C	16	0	-3%	36	-1
CN(c1ccc(C(=O)Nc2cccc(O)c2)cc1)S(=O)(=O)c1ccccc1	6.6	/	/	/	?
COc1ccc2oc(C)c(C(=O)NN)c2c1	-6.8	-2	-14%	-7	1
Cc1ccc(-c2nc(S(=O)(=O)c3ccc(C)cc3)c(N(C)C)o2)cc1	0.4	/	/	/	-3
COC(=O)C1=C(C)NC(=S)N(C(C)=O)C1c1ccc(OC)c(OC)c1 (stereo not given)	/	3	-5%	-28	0
CC(C)(C)c1ccc(-c2c(C(=O)O)c(C(=O)O)c3n2CSC3)cc1	4.7	/	/	/	3
COc1ccc(CNC(=O)c2cccc(S(=O)(=O)N3CCN(C)CC3)c2)cc1	1.6	2	9%	/	-14
COc1ccc(CNC(=O)NCc2ccc(OC)c(OC)c2)cc1OC	-11	6	-7%	-9	-10
CC(C)N1CCc2c(sc(NC(=O)Cc3ccccc3)c2C(N)=O)C1	-7.9	/	/	/	-1
COc1ccc(S(=O)(=O)n2ccc(-c3ccc(OCCN(C)c4ccccn4)cc3)n2)cc1	5.3	3	-5%	-6	7
COc1ccc(OCC(O)CN2CCN(c3ccc(OC)cc3)CC2)cc1 (stereo not given)	1.8	/	/	/	-5
CSc1nnc(C(C)(C)C)c(=O)n1/N=C/c1ccccc1	2.3	/	-6%	/	-1
O=c1oc2ccccc2c(Nc2ccccc2)c1CN1CCCCC1	-2.0	/	1%	/	-4
CC(C)CN(C(=O)COC(=O)c1cc2c(s1)CCC2)C1CCS(=O)(=O)C1 (stereo not given)	-1.1	0	-4%	-41	4
Cc1ccc2nc(CSc3nnc(Nc4ccccc4F)s3)cc(=O)n2c1	-1.9	-10	3%	-4	-11
COC(=O)CN1C(=O)C2(OCCCO2)c2cc(Br)ccc21	1.6	5	1%	-28	16
C#CCOc1ccc(OC)cc1C(c1c(C)[nH][nH]c1=O)c1c(C)[nH][nH]c1=O	95*	/	/	/	-2
O=C(Cc1ccc(-n2c(=S)[nH]c3ccccc3c2=O)cc1)N1CCC(N2CCCCC2)CC1	1.5	14	-6%	-10	-11
CN(c1cccc(NC(=O)COc2ccccc2)c1)S(C)(=O)=O	0.9	3	-4%	-9	-6
COCCCNC(=O)c1cccn2c(=O)c3cc4ccccc4cc3nc12	-7.9	-23	35%	2	89
CCCn1nnnc1NCc1c(Cl)cccc1Cl	-0.8	3	-2%	/	4
CCOc1ccc(N2C(=O)CC(N(CCc3ccc(OC)cc3)C(=O)/C=C/C(=O)O)C2=O)cc1 (stereo not given)	-3.0	12	6%	/	6
NC(=O)c1ccsc1NC(=O)COC(=O)Cc1ccsc1	/	-3	-5%	-147	0
c1ccc(Nc2ccccc2Nc2ccccn2)nc1	2.5	-8	4%	-21	-1
C/C(=N\NC(=S)NC1CCCCC1)c1ccc(O)cc1	-1.3	12	9%	/	-7
CCOc1ccc(OCCn2c(=S)[nH]c3ccccc32)cc1	8.6	/	/	/	-1
Cc1ccc2c(CC(=O)NC3CCCc4ccccc43)coc2c1 (stereo not given)	3.8	-1	10%	-21	3
O=C(N/N=C/c1cccnc1)c1ccc2ccccc2c1O	-7.4	/	/	/	0
CCCCCOc1ccc(NC(=O)CSc2cccc3cccnc23)cc1	4.2	-17	56%	-10	96
Cc1noc(NS(=O)(=O)c2ccc(N/C=C\C(=O)c3cccs3)cc2)c1C	-6.1	17	7%	/	12
COc1ccc(OCC(O)CN2CCNCC2)cc1 (stereo not given)	-0.7	/	/	/	-6
COC(=O)NC1c2ccccc2Oc2ccccc21	-1.8	/	/	/	4
CNc1nc(N)c([N+](=O)[O-])c(Nc2cccc(F)c2)n1	1.9	/	-6%	/	-6
CCOc1cc2c(cc1OCC)-n1cccc1C(c1ccc(F)c(OC)c1)NC2 (stereo not given)	0.0	/	/	/	5
O[C@@H]1CCCN2CCc3c([nH]c4ccccc34)[C@H]12	-3.8	/	-8%	/	-4
COc1ccc(OCC(O)CNS(=O)(=O)c2cccs2)cc1 (stereo not given)	0.6	/	/	/	4
COCCNC(=O)/C(C#N)=C/c1ccc(OCc2ccc(F)cc2)cc1	0.0	6	14%	/	5
COCCCNC(=O)CN1C(=O)/C(=C\c2ccc(C)cc2)Sc2ccccc21	-0.4	-1	2%	-6	-3
Cc1ccc(NC(=O)CSCC(=O)Nc2ncc3c(n2)CC(c2ccco2)CC3=O)cc1 (stereo not given)	1.4	-3	0%	-25	3
CCOC(=O)N1CCN(c2ncnc3c2oc2nc(C(C)C)c4c(c23)CCC4)CC1	/	-16	-11%	-47	3
COc1ccc2nc(SCC(=O)NCC(F)(F)F)[nH]c2c1	-0.7	4	3%	/	3
O=C(CCNC(=O)C1CCN(S(=O)(=O)c2ccccc2)CC1)NCc1ccncc1	-0.3	/	/	/	3
O=C(Nc1ccc(NC(=O)c2cccs2)cc1)c1cccs1	2.1	/	/	/	-6
CN(NC(=O)C1CC(=O)N(c2ccccc2)C1)C1=NS(=O)(=O)c2ccccc21 (stereo not given)	-0.2	0	-4%	/	7
O=C(c1ccc(Sc2ccccc2)c([N+](=O)[O-])c1)N1CCOCC1	-1.0	/	/	/	-3

High-throughput results from PubChem BioAssay.
